Vaccinia pol inh: blocks vaccinia virus processive DNA synthesis; in vitro processive DNA synthesis, absorbance read-out; stronger effect = lower value; some inactives read as strong as hits; normalized absorbance, % (concentration not given with the values); hit rate 0.94% among 46,000;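 active = replicate mean up to 90% and picked by the depositor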;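 note: 100% = median of the test wells of a plate; 100 nL library stock went into each well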
* marks the source's active call; other numbers are inactive results. A portion of the library; the hit share may differ from the screen's.

The opening 4 records as a preview:
SMILES	Vaccinia pol inh
CC(=O)N1CCN(C2c3cccc4cccc(c34)C2NS(=O)(=O)c2ccc(Cl)cc2)CC1 (stereo unspecified)	97
CC(=O)ON(Cc1c(C)no[n+]1[O-])Cc1c(C)no[n+]1[O-]	95
O=C(Oc1cccc(OC(=O)c2ccccc2F)c1)c1ccccc1F	98
CCCc1cc2c(=O)c(-c3ccccn3)c(C)oc2cc1O	95

Results, from the first entry:
SMILES	Vaccinia pol inh
CC(=O)N1CCN(C2c3cccc4cccc(c34)C2NS(=O)(=O)c2ccc(Cl)cc2)CC1 (stereo unspecified)	97
CC(=O)ON(Cc1c(C)no[n+]1[O-])Cc1c(C)no[n+]1[O-]	95
O=C(Oc1cccc(OC(=O)c2ccccc2F)c1)c1ccccc1F	98
CCCc1cc2c(=O)c(-c3ccccn3)c(C)oc2cc1O	95
Cc1cc(C)cc(NC(=O)CC(NCc2cccnc2)C(=O)O)c1 (stereo unspecified)	100
O=C(CSCc1ccc2nsnc2c1)Nc1ccccc1	100
Oc1c(CN2CCOCC2)cc(-c2ccccc2)cc1CN1CCOCC1	98
CC(C)(C)c1ccc(NC(=O)N2CCOCC2)cc1	98
O=C(O)Cc1ccc2c(c1)OCCO2	101
CSC1=N/C(=C\c2ccccc2Cl)C(=O)N1N(C)C	110
CCN(CC)CCC(=O)N1N=C(c2ccc(C)cc2)CC1c1ccc(OC)cc1 (stereo unspecified)	98
COC(=O)c1oc2c(c1C)-c1nc3ccccc3nc1C(C)(C)C2	99
Cc1ccc(-n2c(SCC(=O)c3ccccc3)nc3[nH]ncc3c2=O)cc1Cl	99
CN(C=O)CP(=O)(O)CN1CCCCC1	100
Clc1ccc(CN2CCOCC2)cn1	111
O=C(COC(=O)CC1CC2CCC1C2)Nc1ccc(F)cc1Cl (stereo unspecified)	105
Cc1ccnc(SCc2nc3ccc(Cl)cn3c2Br)n1	82
CCN1C(=O)/C(=C\c2cc(C)n(-c3ccccc3)c2C)SC1=S	101
CC(C)NCC(O)COc1ccc2c(c1)CCC2 (stereo unspecified)	102
CCOc1cccc(NC(=O)c2ccc(Br)cc2F)c1	96
COc1ccccc1CNC(=O)c1sc2nc[nH]c(=O)c2c1C	101
O=C(NCCN1CCNC1=O)c1sc2ccccc2c1Cl	95
O=C1CC(SCc2ccc(Cl)cc2)C(=O)N1c1ccc(Br)cc1 (stereo unspecified)	101
CNC(=O)CC1Sc2ccc(C(F)(F)F)cc2NC1=O (stereo unspecified)	97
O=S(=O)(/N=C(\Nc1ccc(O)cc1)c1ccccc1)c1ccccc1	98

Looked up above.
`CC(C)NCC(O)COc1ccc2c(c1)CCC2` (stereo unspecified) | Vaccinia pol inh = 102
`CN(C=O)CP(=O)(O)CN1CCCCC1` | Vaccinia pol inh = 100
`O=C(NCCN1CCNC1=O)c1sc2ccccc2c1Cl` | Vaccinia pol inh = 95
`CCCc1cc2c(=O)c(-c3ccccn3)c(C)oc2cc1O` | Vaccinia pol inh = 95
`O=C(O)Cc1ccc2c(c1)OCCO2` | Vaccinia pol inh = 101
`O=C(Oc1cccc(OC(=O)c2ccccc2F)c1)c1ccccc1F` | Vaccinia pol inh = 98
`CNC(=O)CC1Sc2ccc(C(F)(F)F)cc2NC1=O` (stereo unspecified) | Vaccinia pol inh = 97
`CCN1C(=O)/C(=C\c2cc(C)n(-c3ccccc3)c2C)SC1=S` | Vaccinia pol inh = 101
`CC(C)(C)c1ccc(NC(=O)N2CCOCC2)cc1` | Vaccinia pol inh = 98
`O=C(CSCc1ccc2nsnc2c1)Nc1ccccc1` | Vaccinia pol inh = 100
`Cc1ccnc(SCc2nc3ccc(Cl)cn3c2Br)n1` | Vaccinia pol inh = 82
`Cc1ccc(-n2c(SCC(=O)c3ccccc3)nc3[nH]ncc3c2=O)cc1Cl` | Vaccinia pol inh = 99
`Cc1cc(C)cc(NC(=O)CC(NCc2cccnc2)C(=O)O)c1` (stereo unspecified) | Vaccinia pol inh = 100

Later entries.
SMILES	Vaccinia pol inh
Clc1cccc(-c2nc(N3CCCC3)nc3c2COc2ccccc2-3)c1	95
Cc1cc(=O)oc2cc(OCCOc3ccccc3)ccc12	86
Nc1nnn(Cc2ccccc2)n1	106
N#Cc1ccc(OCC(=O)N2CCCC2)cc1	105
C[N+]1(CCC(=O)NCc2ccccc2)CCCCC1	95
O=C1CCCCC1Sc1nc2ccccc2s1 (stereo unspecified)	100
Cc1ccc(/C=C2/SC(=Nc3ccc(O)cc3)NC2=O)o1	102
CCc1ccc(OCC(=O)Nc2cccc(Cl)c2)cc1	99
O=c1c2sc3ccccc3c2[nH]c(=S)n1CCCN1CCN(c2ccccc2F)CC1	101
CCNc1cc(N(C)C)nc(Oc2ccc(OCCOc3ccccc3C)nn2)n1	94
COc1ccc(-c2c(C(F)(F)F)oc3c(CN4CCCC(C)C4)c(O)ccc3c2=O)cc1OC (stereo unspecified)	100
CSc1nnc(Nc2ccccc2)n1-c1ccccc1	102
CS(=O)(=NS(=O)(=O)c1cccc2nsnc12)c1ccc(Cl)cc1 (stereo unspecified)	94
O=C(COC(=O)/C=C\c1ccco1)Nc1ccc(OC(F)(F)F)cc1	91
c1ccc(SCc2cc(-c3ccccc3)no2)cc1	109
COc1ccccc1Oc1ncnc2scc(-c3ccc(F)cc3)c12	95
Cc1cc(O)c(C(=O)Cc2ccccn2)c(O)c1	92
Cc1cc(C)cc(NC(=O)Cn2c(=O)c3cccn3c3ccccc32)c1	101
CCOc1ccc(CCNC(=O)Cn2ncn3nc(-c4cccs4)cc3c2=O)cc1OCC	103
FC(F)(F)c1cccc(C=NCc2ccc(-c3cccs3)s2)c1	100
Cc1cccc(NC(=O)CSC2=C(C#N)C(c3ccccc3C)C3=C(CCCC3=O)N2)c1 (stereo unspecified)	102
Cc1ccc(C(=O)Nc2nnc(SCc3ccccc3)s2)cc1	100
CC(C)(C)c1ccc(OCc2nc3ccccc3[nH]2)cc1	109
CN1C2CCC1CC(NS(=O)(=O)c1cccc(C(F)(F)F)c1)C2 (stereo unspecified)	89
COc1cc(C=Nc2ccc(O)cc2)ccc1OC(=O)CC1SC(=O)NC1=O (stereo unspecified)	100

Later entries
SMILES	Vaccinia pol inh
Cc1onc(-c2ccccc2Cl)c1C(=O)Nc1ccc(S(=O)(=O)N2CCC(C)CC2)cc1	100
O=C(Oc1cccc2cccnc12)c1cc(C(F)(F)F)cc(C(F)(F)F)c1	100
N#Cc1c(N2CCN(C(=S)NCc3ccccc3)CC2)nc(-c2ccccc2)c2c1CCCC2	99
Nn1c(Cc2cccc3ccccc23)n[nH]c1=S	100
Nc1cc(=O)[nH]c(SCC(=O)Nc2ccccc2)n1	102
N=c1c(S(=O)(=O)c2ccccc2)cc2c(=O)n3ccccc3nc2n1C1CCCC1	100
CCc1ccc2c(c1)=C(c1sc(N)nc1O)C(=O)N=2	100
N#CC1=C(SCC(=O)N(c2ccccc2)c2ccccc2)NC(=O)CC1c1ccccc1F (stereo unspecified)	102
COCC(=O)NCCc1nc2ccccc2n1C	100
CCn1c(=O)c2sccc2n2c(CCCC(=O)Nc3ccccc3)nnc12	104
O=C(Cc1ccccc1)c1c[nH]c(C(=O)NCCc2ccccn2)c1	77
Nc1ccc(Sc2ccc3ccccc3c2Cl)c(Cl)c1	100
CCc1ccc(C2NCCc3cc4c(cc32)OCCO4)cc1 (stereo unspecified)	101
COC(=O)Cn1ncc2c3ccccc3n(Cc3cc(C)ccc3C)c2c1=O	96
COC(=O)C1C(c2ccccc2)C(C(=O)OCc2ccccc2)C1c1ccccc1 (stereo unspecified)	99
Cc1ccc(S(=O)(=O)NCCc2nnc3ccc(SCC(=O)N4CCCC4)nn23)cc1	104
N#Cc1ccc(-c2csc(-c3ccc(C4SCCS4)cc3)n2)cc1	95
COc1cccc(C(=O)Nc2nn3c(COc4ccccc4)nnc3s2)c1	104
COc1cccc(Oc2ccc(C(F)(F)F)cc2N)c1	88
COc1ccc(CNC(=O)c2cc3c(=O)oc4ccccc4c3s2)cc1	99
COc1ccc(NC(c2ccccc2)C(F)(F)CO)cc1 (stereo unspecified)	85
Cn1c(=O)c(=O)n(C)c2cc(S(=O)(=O)N3CCSc4ccccc43)ccc21	100
Cc1ccc(C2=NC(C(C)C)NC(c3ccccc3O)C2)cc1 (stereo unspecified)	101
CC(N)(Cc1cccc(O)c1)C(=O)O (stereo unspecified)	96
CC(C)(C)C(=O)Nc1c(Cl)sc2nccc(=O)n12	100

Next entries
SMILES	Vaccinia pol inh
O=C(CNC(=O)c1cccc(Cl)c1)Nc1ccc(Br)cc1C(=O)c1ccccc1	100
CC1SCC(=O)N(CC(=O)NCCc2ccccc2)C1=O (stereo unspecified)	118
Nc1nc(SCc2ccccc2)n(-c2ccccc2)n1	90
CCOc1cc(/C=C2/SC(=Nc3ccccc3F)NC2=O)ccc1O	68
CCOC(=O)CN1CC23C=CC(O2)C(C(=O)NCc2ccc(OC)cc2)C3C1=O (stereo unspecified)	102
COc1ccc2c(CNCCc3ccccc3OC)c(C(=O)O)n(C)c2c1	106
COc1ccc(NC(=O)CCSc2ccc3ccccc3n2)cc1	99
Cc1cc(Cl)ccc1N=C(N)NN	95
CN(C)CCNc1nc2ccccc2n1C	98
COC(=O)C1=CN(C(C)C)C=C(C(=O)OC)C1c1ccc(C(C)C)cc1	88
CCC1(CC)C(=O)C(C)(C)C(=O)OC1c1ccccn1 (stereo unspecified)	109
O=C1CCCC(O)=C1C=Nc1ccc(Cl)c(Cl)c1	102
CC1CCN(C(=O)c2cc3nc(-c4ccco4)cc(C(F)(F)F)n3n2)C2CCCCC12 (stereo unspecified)	104
O=C(O)C1CCN(C(=O)OCC2c3ccccc3-c3ccccc32)CC1	91
O=c1[nH]c2cc3nc(C(F)(F)F)[nH]c3cc2[nH]1	94
Cc1cc(OCc2c(F)cccc2Cl)c2c3c(c(=O)oc2c1)CCCC3	100
Cc1ccc(Cn2cc(CCC(=O)NC(C)C)c3ccccc32)cc1	89
CCOc1ccc(C(=O)Nc2sccc2C#N)cc1	112
C=CCN1C(=O)NC(=O)/C(=C/c2ccco2)C1=O	100
N#CCC(=O)Nc1ccccc1C(=O)O	101
CN(C)c1ccc(C(O)C(=O)c2ccccc2)cc1 (stereo unspecified)	99
O=C(COc1ccccc1F)Nc1ccccc1O	88
O=C(COc1ccc2ccc(=O)oc2c1)c1ccccc1Cl	99
COc1ccc(C2=NN(C(=O)c3cccs3)C(c3cc4ccccc4nc3Cl)C2)cc1 (stereo unspecified)	100
O=C(O)c1c2c(nc3ccccc13)CCN(S(=O)(=O)c1ccc(Cl)cc1)C2	109

(next part)
SMILES	Vaccinia pol inh
CCOC(=O)N1CCN(C(=O)c2ccc3c(=O)n(CCc4ccccc4)c(=O)[nH]c3c2)CC1	90
CN=C1S/C(=C\c2ccc(N3Cc4ccccc4C3)cc2)C(=O)N1C	101
O=C(N1CCCc2ccccc21)C(F)(F)F	100
Cc1ccc(Cn2c(CNC(=O)c3ccccc3)nc3ccccc32)cc1	102
Cc1ccc(S(=O)(=O)NC(CC(=O)O)c2ccc(F)cc2)cc1 (stereo unspecified)	102
Cc1ccc(N2C(=S)NC3c4cc(Cl)ccc4OC2(C)C3C(=O)Nc2ccc(C)cc2C)cc1 (stereo unspecified)	94
N/C(Cc1nc(-c2ccc(Cl)cc2)cs1)=N\O	93
COc1ccc(CNC(=O)c2c[nH]c3ccccc23)cc1	97
S=c1nc(CCCCc2nc(=S)[nH][nH]2)[nH][nH]1	110
CCOC(=O)c1cn2c3c(ccc(C)c3c1=O)OC(CC)C2 (stereo unspecified)	103
CC1CCN(C(=O)Cn2cnc3c(cnn3-c3ccccc3)c2=O)CC1	89
Cc1cccc(-n2[nH]nnc2=S)c1	100
Brc1cc(Br)c2c(c1)C=C1CCCCCC1(N1CCOCC1)O2 (stereo unspecified)	100
CCCCCCCCCCCCCCCC(=O)C1=C(O)C(CO)OC1=O (stereo unspecified)	97
CSc1nc(-c2ccco2)cc(C(F)(F)F)c1C#N	98
O=C(Nc1ccccc1C(F)(F)F)N1CCCC1c1cccnc1 (stereo unspecified)	90
CN(C)CC#CC1(O)CCCCC1	101
COc1ccccc1NC(=O)COC(=O)Cc1cccc2ccccc12	111
c1cncc(-c2noc(-c3cccs3)n2)c1	100
CCOC(=O)c1sc(Nc2ccc(C)cc2C)nc1C	100
O=C(CCCn1sc2ccccc2c1=O)NCc1cccs1	100
CN1C(=S)N(c2ccc(Cl)cc2)C(=O)/C1=C/c1ccccc1O	100
COc1ccc2nc(N3CCCCC3)c(/C=C3\SC(=S)NC3=O)cc2c1	95
CC1CCCC(C)N1C(=O)COC(=O)CCc1ccccc1 (stereo unspecified)	96
Cc1ccc(CCC(=O)Nc2ccc(C(=O)O)cc2)o1	98

New compounds follow:
SMILES	Vaccinia pol inh
NC(=O)CSc1nnnn1-c1ccccc1	100
O=C(Oc1ccc(-c2ccccc2)c(F)c1)c1ccco1	68
CCOC(=O)c1c(C2CC2)csc1N	98
O=C1/C(=C/C2CCCCC2)CCCc2ccccc21	100
Cc1ccc(S(=O)(=O)N2Cc3ccccc3CC2C(=O)Nc2cccc3ccccc23)cc1 (stereo unspecified)	99
CN(Cc1ccccc1)C(=O)CC(=O)N(C)Cc1ccccc1	101
CCC1=[N+]([O-])C(C)(/C(C)=N\O)N(O)C1(C)C (stereo unspecified)	100
CC(C)(C)n1nc2c(c1NC(=O)c1ccc(Cl)cc1)CSC2	100
CCC(=O)NCCCc1nc2ccccc2n1Cc1ccccc1	102
CC1=NC(C(F)(F)F)(C(F)(F)F)N=C(N(C)C)O1	102
CCc1ccc(NC(=O)c2sccc2-n2cccc2)cc1	102
O=C(NCc1cccnc1)c1cc(Nc2cccc(C(F)(F)F)c2)nc2ccccc12	89
COc1ccc2c(c1)c1ccccc1n2C	67*
CC1(C)CSC(=NCc2ccccc2)N1	104
CC(=O)Nc1cc(C(=O)N2CC(C)CC(C)C2)ccc1Sc1ccc(Cl)cc1 (stereo unspecified)	88
Cc1ccc(S(=O)(=O)Nc2c(-c3ccccc3)c3cc(C)ccc3[nH]c2=O)cc1	94
Cc1ccc(CNc2ncnc3c2nc2n3CCCCC2)cc1	98
Cc1ccc2nc3c(cc(C(=O)NCCN4CCOCC4)c(=N)n3CC3CCCO3)c(=O)n2c1 (stereo unspecified)	91
Cc1ccc(Oc2ncccc2C(=O)NCC(=O)O)cc1	105
COc1cc(C(C#N)N2CCCCC2)ccc1O (stereo unspecified)	84

Compound activity: PubChem BioAssay, ICCB-Longwood Screening Facility, Harvard Medical School
